High-throughput results (PubChem BioAssay)
LASV entry inh: qHTS for Inhibitors of binding or entry into cells for Lassa Virus; Lassa virus pseudotype entry inhibition, cell reporter; control for the full effect not named in the record; Potency, µM (series often up to 37.9 µM), for the others: top-dose activity change, negative = inhibition, actives largely listed as inhibitors; 300,000 tested, 1.2% active; AID 540256, 2011; active means well fitted inhibition curve with a large enough effect; inconclusive means small, poorly fitted or top-dose-only effect, or effect the other way; inactive means flat fitted curve, though single readings scatter; tested in HEK293 cells; also: % is scaled to controls: 0 for no effect and ±100 for the full control effect; nearly all actives have a fitted effect of over 50% in size; luciferase read-out
Cruzain inh noDet: qHTS Assay for Promiscuous and Specific Inhibitors of Cruzain (without detergent); purified cruzain, Z-FR-AMC fluorescence, no detergent; Cruzipain (Trypanosoma cruzi), P25779; Potency, µM, without a hit: max response, negative = inhibition, actives largely listed as inhibitors; AID 1476, 2009; 200,000 tested, 2.3% active; active = well fitted curve in the direction sought with a large enough effect; inconclusive = small, poorly fitted or top-dose-only effect, or another doubt; inactive = no such curve, though single readings can be large; an effect the other way counts as inactive or inconclusive;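 also: plate controls were enzyme without inhibitor for no effect and buffer without enzyme for full effect; nearly all actives have a fitted effect of over 40% in size; top concentration of the series not given in the record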
Target sequence (P25779 123-467 limits assumed): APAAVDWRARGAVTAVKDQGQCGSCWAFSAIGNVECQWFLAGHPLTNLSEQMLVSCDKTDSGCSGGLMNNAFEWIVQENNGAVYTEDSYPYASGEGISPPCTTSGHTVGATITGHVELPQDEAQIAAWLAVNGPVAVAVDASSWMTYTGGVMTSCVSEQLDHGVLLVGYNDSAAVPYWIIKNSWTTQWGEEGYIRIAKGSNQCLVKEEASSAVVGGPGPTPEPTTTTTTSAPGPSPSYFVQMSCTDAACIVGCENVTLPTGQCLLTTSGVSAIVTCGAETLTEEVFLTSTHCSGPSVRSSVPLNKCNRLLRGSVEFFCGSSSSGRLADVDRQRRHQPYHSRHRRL
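Detergent-free condition (0.00005% Triton X-100) in acetate buffer pH 5.5 with DTT. 1.5 nM enzyme and compound were pre-mixed 15 min, then 2 uM Z-FR-AMC substrate added; reaction progress from fluorescence change between first and third reads (60 s).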
RE007 growth inh: qHTS Assay for Inhibitors of the HIV-1 protein Vpr; 360,000 tested, 0.21% active; Potency, µM (doses to about 92.2 µM), inactives show top-dose activity change, negative = less growth; S. pombe RE007 Vpr strain, BacTiter-Glo ATP luminescence, 24 h; control for the full effect not named in the record; AID 651644, 2012; active = well fitted falling curve with a large enough effect; inconclusive = small, poorly fitted or top-dose-only effect; inactive = no such curve, though single readings can be large or run the other way;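 also: % is scaled to controls: 0 for no effect and ±100 for the full control effect; nearly all actives have a fitted effect of over 50% in size; the assay follows cell death caused by Vpr and the record does not say whether a fall means rescue or toxicity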
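Fission yeast RE007 carrying one integrated HIV-1 vpr copy, seeded at OD 0.01 in PMG+AL medium with 23 nL pinned compound. Grown 24 h at 30 degrees; viability read by BacTiter-Glo luminescence after 5 min.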
Cruzain Triton: qHTS Assay for Promiscuous and Specific Inhibitors of Cruzain (with detergent); Cruzipain (Trypanosoma cruzi), P25779; purified cruzain, Z-FR-AMC fluorescence, 0.01% Triton; Potency, µM, inactives show max response, negative = inhibition, most hits filed as inhibitors; 200,000 tested, 0.43% active; AID 1478, 2009; active = well fitted curve in the direction sought with a large enough effect; inconclusive = small, poorly fitted or top-dose-only effect, or another doubt; inactive = no such curve, though single readings can be large; an effect the other way counts as inactive or inconclusive;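 also: plate controls were neutral wells for no effect and buffer without enzyme for full effect; nearly all actives have a fitted effect of over 40% in size; top concentration of the series not given in the record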
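In this qHTS format, compounds are incubated with 1.5 nM cruzain for 15 min at room temperature before 2 uM Z-FR-AMC is added. Release of AMC is followed at 360/450 nm, and progress is taken as the 60 s fluorescence difference.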
2A StopGo: High Throughput Screening for Foot and Mouth Disease Virus Antivirals; 410,000 tested, 1.2% active; human cells with a luciferase reporter of 2A StopGo recoding; control for the full effect not named in the record; Potency, µM (series often up to 57.9 µM), for inactives: at the highest dose signal change, negative = less light; AID 1159524, 2015; active = well fitted falling curve with a large enough effect; inconclusive = small, poorly fitted or top-dose-only effect; inactive = no such curve, though single readings can be large or run the other way; tested in HEK293T cells; also: % is scaled to controls: 0 for no effect and ±100 for the full control effect; nearly all actives have a fitted effect of over 45% in size; luciferase light after 4 h
MARV entry inh: qHTS for inhibitors of binding or entry into cells for Marburg Virus; Marburg virus pseudotyped entry inhibition, cell reporter; control for the full effect not named in the record; about a third of the inactives were read at about 46 µM; 300,000 tested, 1.8% active; Potency, µM (doses to about 37.8 µM), inactives show at the highest dose activity change, negative = inhibition, most hits filed as inhibitors; AID 540276, 2011; active = well fitted inhibition curve with a large enough effect; inconclusive = small, poorly fitted or top-dose-only effect, or effect the other way; inactive = flat fitted curve, though single readings scatter; tested in HEK293 cells; about a fifth of its hits are not listed in these tables; also: % is scaled to controls: 0 for no effect and ±100 for the full control effect; luciferase read-out
NS1 function inh: qHTS Assay for Inhibitors of Influenza NS1 Protein Function. S. cerevisiae slowed by influenza A NS1, growth recovery by OD600. Potency, µM (series often up to 46.1 µM), for the others: top-dose activity, positive = more growth. AID 2326, 2010. 270,000 tested, 0.4% active; also: actives are rising curves; nearly all actives have a fitted effect of over 50% in size
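OD600 was taken as the measure of yeast growth restored by compound in an NS1-expressing S. cerevisiae strain. Cells had been washed out of glucose medium and diluted 1:100 into galactose -URA medium, pH 6.0.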
SARS PLP yeast: qHTS of Yeast-based Assay for SARS-CoV PLP | Potency, µM (titrated, usually from 32.9 µM), inactives show top-dose activity, positive = growth rescue | 330,000 tested, 0.19% active | S. cerevisiae expressing SARS-CoV PLpro, growth rescue; control for the full effect not named in the record; also: 0% is about no effect; nearly all actives have a fitted effect of over 55% in size; growth read by luminescence after 48 h
* hit, by the source's call; ? = inconclusive; nt = not tested or not shown; & = joins results of further samples; [ ] = dose if it differs, or a comment. Unless noted, calls follow the shape of the dose curve; as a rule, active means well fitted rising curve with a large enough effect; inconclusive means small, poorly fitted or top-dose-only effect; inactive means no such curve, though single readings can be large or run the other way. Potency is read from the fitted curve at half-maximal effect.

1: CN(CC(=O)Nc1ccc(F)cc1)C(=O)COC(=O)CCN1C(=O)C2CC=CCC2C1=O (stereo not given)
2: CCOc1ccccc1N1CCN(C(=O)c2ccc3[nH]c(C)c(C)c3c2)CC1
3: Cc1cc(C)c2oc(-c3cccc(N)c3)nc2c1
4: CCCn1nnnc1SCC(=O)c1ccc2c(c1)OCCO2
5: N#CC1(NC(=O)COC(=O)c2cc(=O)[nH]c3ccccc23)CCCCC1
6: O=C(CCC1CCN(C(=O)c2cncs2)CC1)Nc1ccccc1

assay / entry | 1 | 2 | 3 | 4 | 5 | 6
LASV entry inh | 4% | nt | nt | 7% | 21% | 23%
Cruzain inh noDet | nt | nt | nt | -21% | nt | nt
RE007 growth inh | 2% | 10% | -4% | 33% | -7% | 6%
Cruzain Triton | nt | nt | nt | -0.8% | nt | nt
2A StopGo | -11% | -6% | 4% | 66%[activator] | -5% | ?
MARV entry inh | ? | nt | nt | 3%[46.1 µM] | ? | 10%
NS1 function inh | -2% | -17% | -52% | 0% | nt | 0%
SARS PLP yeast | -5% | -13% | -15% | -6% | 1% | 1%

7: N#Cc1ccc(/C=N/NC(=S)Nc2ccc(S(=O)(=O)N3CCOCC3)cc2)cc1
8: CCCN1CCc2c(sc(NC(=O)c3ccc(S(=O)(=O)N(C)c4ccccc4)cc3)c2C(N)=O)C1
9: Cc1c(CNC(C)CCc2ccccc2)c(C(=O)O)c(C)n1Cc1ccc(F)cc1 (stereo not given)
10: CCOC(=O)Cc1cc(-c2ccc(F)cc2)nc2ccc3ccccc3c12
11: CCCCCn1nc(-c2ccccc2)c2nc3ccccc3nc21
12: COc1ccccc1CNC(=O)COC(=O)Cc1ccc(F)cc1

assay / entry | 7 | 8 | 9 | 10 | 11 | 12
LASV entry inh | -26% | nt | 23%[46.1 µM] | 4% | 3% | 19%
Cruzain inh noDet | nt | nt | 19% | -13% | -11% | nt
RE007 growth inh | -12% | -12% | nt | 0% | 1% | -11%
Cruzain Triton | nt | nt | -1.5% | 1.1% | -1.7% | nt
2A StopGo | 9% | ? | -11% | -24% | -16% | -14%
MARV entry inh | 30%[46.1 µM] | nt | 6%[46.1 µM] | 11% | -13% | 6%[46.1 µM]
NS1 function inh | -43% | 19% | nt | -11% | 9% | nt
SARS PLP yeast | 0% | -2% | nt | 9% | 2% | -5%

13: COCc1cc(C)n(CC(=O)Nc2cc(C)cc(C)c2)c(=O)c1C#N
14: CCOc1ccc(S(=O)(=O)NCCc2csc3nc(-c4ccc(OC)c(OC)c4)nn23)cc1
15: CCc1ccc(CNC(=O)c2cccc(-n3cnc4cccnc43)c2C)cc1
16: S=C(NCCc1ccccc1)N1CCN(C23CC4CC(CC(C4)C2)C3)CC1
17: Cc1ccc(S(=O)(=O)/N=C(/Nc2c(C)n(C)n(-c3ccccc3)c2=O)c2ccccc2)cc1
18: CCOC(=O)N1CCN(C(=O)CS(=O)(=O)c2cn(Cc3ccccc3Cl)c3ccccc23)CC1

assay / entry | 13 | 14 | 15 | 16 | 17 | 18
LASV entry inh | nt | 11%[46.1 µM] | ? | ? | -10% | nt
Cruzain inh noDet | nt | ? | -1% | nt | 14% | ?
RE007 growth inh | 13% | nt | nt | 3% | -3% | -15%
Cruzain Triton | nt | -3.7% | -3.8% | nt | 0.4% | 3.0%
2A StopGo | 1% | 53%[activator] | -9% | ? | 44%[activator] | ?
MARV entry inh | nt | nt | nt | ? | 12% | nt
NS1 function inh | 0% | nt | nt | nt | -1% | 7%
SARS PLP yeast | 0% | nt | nt | -3% | -6% | 3%

19: CC(C)(C)CC(C)(C)N=C1NS(=O)(=O)c2cc([N+](=O)[O-])ccc21
20: Cc1nn(Cc2ccccc2)c(C)c1NC(=O)c1ccc([N+](=O)[O-])cc1[N+](=O)[O-]
21: CCOC(=O)c1c(S(=O)(=O)N2CCCC(C(=O)NCc3ccc(F)cc3)C2)c(C)n(CC)c1C (stereo not given)
22: COc1ccc(-n2nc(C(=O)NCC(=O)N3CCC(C)CC3)c3ccccc3c2=O)cc1
23: CC(C)(C)c1ccc(C(=O)C=[N+]=[N-])cc1
24: CN=C1SC(CC(=O)NCCc2ccc(OC)c(OC)c2)C(=O)N1C (stereo not given)

assay / entry | 19 | 20 | 21 | 22 | 23 | 24
LASV entry inh | -6% | -12% | 2%[46.1 µM] | nt | ? | 7%[46.1 µM]
Cruzain inh noDet | nt | 1% | 14% | nt | 8% | -3%
RE007 growth inh | -16% | -10% | nt | -2% | 2% | 4%&-3%
Cruzain Triton | nt | -0.6% | 1.3% | nt | -3.0% | 3.3%
2A StopGo | 4% | -10% | -1% | 34%[activator] | 13% | -3%&7%
MARV entry inh | ? | 2% | nt | 2%[46.1 µM] | 15%&15% | ?
NS1 function inh | -2% | -4% | nt | 18% | -14% | -2%
SARS PLP yeast | 0% | -10% | nt | 2% | -1% | -8%

25: COC(=O)C(F)(Sc1c(C)n(C)n(-c2ccccc2)c1=O)C(F)(F)F (stereo not given)
26: CN(/C(=N/S(=O)(=O)c1ccccc1)c1ccccc1)S(=O)(=O)c1ccccc1
27: CCC(=O)N1CCc2cc(Br)cc(S(=O)(=O)N3CCN(c4cccc(Cl)c4)CC3)c21
28: CC1CCCC(NC(=O)CNC(=S)N2CC3CC(C2)c2cccc(=O)n2C3)C1C (stereo not given)
29: Cc1cc(C)c2c(c1)OC(O)(C(F)F)CC2=O (stereo not given)
30: CCOc1ccc(Nc2cc(C)nc(N3CCOCC3)n2)cc1

assay / entry | 25 | 26 | 27 | 28 | 29 | 30
LASV entry inh | ? | 5% | 21%[46.1 µM] | nt | 2% | 0%
Cruzain inh noDet | 2% | 0% | -2% | nt | 5% | 8%
RE007 growth inh | 12% | 5% | nt | -6% | -12% | 2%
Cruzain Triton | 4.3% | -2.2% | 0.4% | nt | 1.6% | 3.5%
2A StopGo | nt | 15% | -1% | 6% | nt | -8%
MARV entry inh | 12% | -22% | -1%[46.1 µM] | nt | -1% | -27%
NS1 function inh | 4% | -3% | nt | 10% | 0% | -9%
SARS PLP yeast | -2% | -4% | nt | 3% | -5% | 3%

31: Cc1ccc(OCC(=O)NCCNC(=O)c2ccco2)cc1
32: Cc1cc(NC(=O)COc2ccccc2)cc(-c2nc3ccccc3o2)c1O
33: O=C(NCCN1CCN(C(=O)c2c(F)cccc2F)CC1)C(=O)Nc1ccc(Cl)cc1
34: COc1ccc(CCNC(=O)CC2SC(=NCc3ccccc3)NC2=O)cc1 (stereo not given)
35: Cc1cc(NC(=O)C(C)SCC(=O)O)no1 (stereo not given)
36: Cc1ccc(O)c(NC(=S)NC(=O)Cc2ccc(Cl)cc2)c1

assay / entry | 31 | 32 | 33 | 34 | 35 | 36
LASV entry inh | 15%[46.1 µM] | -5%[46.1 µM] | -10% | 4% | -3% | -12%[46.1 µM]
Cruzain inh noDet | nt | 0% | nt | nt | nt | nt
RE007 growth inh | -6% | nt | 0% | 11% | 1% | 220%
Cruzain Triton | nt | 1.1% | nt | nt | nt | nt
2A StopGo | 18% | 6% | -26% | -9% | -9% | -21%
MARV entry inh | 0%[46.1 µM] | -2%[46.1 µM] | ? | 24%[46.1 µM] | 11% | 15%[46.1 µM]
NS1 function inh | 8% | nt | -16% | nt | nt | 4%
SARS PLP yeast | 1% | nt | 2% | -4% | 7% | 2%

37: O=C(CC1Nc2ccccc2NC1=O)NCCc1ccccc1 (stereo not given)
38: CCOC(=O)c1ccc(CSc2nnc3cc(C)c4ccccc4n23)cc1
39: COc1ccc(C2NS(=O)(=O)N=C2N)cc1 (stereo not given)
40: O=C(Cc1ccc(S(=O)(=O)N2CCOCC2)s1)Nc1ccc(Br)c(C(F)(F)F)c1
41: COc1ccc(C2(C)NC(=O)N(CC(=O)NC3CC3)C2=O)cc1 (stereo not given)
42: CN(C)C(=O)C12CCC(C)(c3nc4ccccc4nc31)C2(C)C (stereo not given)

assay / entry | 37 | 38 | 39 | 40 | 41 | 42
LASV entry inh | 2% | ? | ? | -17% | 0%[46.1 µM] | 5%
Cruzain inh noDet | -14% | ? | nt | nt | nt | 3%
RE007 growth inh | 0% | nt | 23% | -3% | -7% | 6%
Cruzain Triton | -2.9% | -5.6% | nt | nt | nt | -0.3%
2A StopGo | -16% | 3% | -9% | ? | -12% | 12%
MARV entry inh | ? | 5%[46.1 µM] | -1%[46.1 µM] | ? | ? | 5%
NS1 function inh | -15% | nt | nt | nt | nt | -1%
SARS PLP yeast | 5% | nt | 1% | nt | 26% | 2%

43: CC(=O)Nc1ccc(C(=O)OCc2ccc(F)cc2)cc1
44: COc1cccc(CN(CC(=O)NC2CCCC2)C(=O)CCC(=O)Nc2cc(C)on2)c1
45: O=C1NC(=S)SC1=Cc1ccccc1Cl
46: O=C(/C=C/c1ccccc1Cl)NCCCn1ccnc1
47: Cc1ccc(-c2nnc(N3CCCCCC3)c3ccccc23)cc1
48: COc1ccc(OC)c(N)c1
49: CC(C)(C)[C@@H]1C=C(C(=O)NCc2ccccc2)O[C@H](OCc2ccc(CO)cc2)C1

assay / entry | 43 | 44 | 45 | 46 | 47 | 48 | 49
LASV entry inh | -20%[46.1 µM] | 3% | 25%[46.1 µM] | ? | ? | -1% | nt
Cruzain inh noDet | nt | -5% | nt | nt | nt | -28% | nt
RE007 growth inh | 19% | 6% | ? | -12% | -4% | -24% | -24%
Cruzain Triton | nt | 7.2% | nt | nt | nt | -7.2% | nt
2A StopGo | -9% | -13% | -14% | 6% | ? | -18% | 15%
MARV entry inh | -12%[46.1 µM] | -11% | ? | 7% | ? | 1% | nt
NS1 function inh | -55% | 3% | nt | 7% | 11% | 11% | 0%
SARS PLP yeast | -5% | -2% | nt | 3% | -13% | 8% | 0%
